Source: PubChem (National Center for Advancing Translational Sciences (NCATS))
RE007 growth inh – qHTS Assay for Inhibitors of the HIV-1 protein Vpr | S. pombe RE007 Vpr strain, BacTiter-Glo ATP luminescence, 24 h; control for the full effect not named in the record | Potency, µM (series often up to 92.2 µM), without a hit: at the highest dose activity change, negative = less growth | actives 0.21% (n = 360,000); active = well fitted falling curve with a large enough effect; inconclusive = small, poorly fitted or top-dose-only effect; inactive = no such curve, though single readings can be large or run the other way;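 note: % is set by controls: 0 for no effect and ±100 for the full control effect; nearly all actives have a fitted effect of over 50% in size; the assay follows cell death caused by Vpr and the record does not say whether a fall means rescue or toxicity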
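Fission yeast RE007 carrying one integrated HIV-1 vpr copy, seeded at OD 0.01 in PMG+AL medium with 23 nL pinned compound. Grown 24 h at 30 degrees; viability read by BacTiter-Glo luminescence after 5 min.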
MARV entry inh – qHTS for inhibitors of binding or entry into cells for Marburg Virus; actives 1.8% (n = 300,000); Marburg virus pseudotyped entry inhibition, cell reporter; control for the full effect not named in the record; about a third of the inactives were read at about 46 µM; AID 540276, 2011; Potency, µM (top dose mostly 37.8 µM), for the others: top-dose activity change, negative = inhibition, hits mostly inhibitors; active = well fitted inhibition curve with a large enough effect; inconclusive = small, poorly fitted or top-dose-only effect, or effect the other way; inactive = flat fitted curve, though single readings scatter; tested in HEK293 cells; about a fifth of its hits are not listed in these tables; note: % is set by controls: 0 for no effect and ±100 for the full control effect; luciferase read-out
Cruzain noTriton – qHTS Assay for Promiscuous and Specific Inhibitors of Cruzain (without detergent); actives 2.3% (n = 200,000); Potency, µM, for the others: max response, negative = inhibition, actives largely listed as inhibitors; purified cruzain, Z-FR-AMC fluorescence, no detergent;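 note: plate controls were enzyme without inhibitor for no effect and buffer without enzyme for full effect; nearly all actives have a fitted effect of over 40% in size; top concentration of the series not given in the record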
Target sequence (P25779 123-467 limits assumed): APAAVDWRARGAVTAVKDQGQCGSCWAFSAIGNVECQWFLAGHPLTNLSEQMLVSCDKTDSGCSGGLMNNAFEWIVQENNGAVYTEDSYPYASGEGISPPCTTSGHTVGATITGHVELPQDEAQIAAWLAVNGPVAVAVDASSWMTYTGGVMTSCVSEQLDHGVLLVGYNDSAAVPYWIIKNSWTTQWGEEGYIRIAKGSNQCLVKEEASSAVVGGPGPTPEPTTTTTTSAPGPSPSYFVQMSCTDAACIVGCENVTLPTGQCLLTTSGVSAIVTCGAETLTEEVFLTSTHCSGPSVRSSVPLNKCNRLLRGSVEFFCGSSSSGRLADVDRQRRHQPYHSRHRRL
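Detergent-free condition (0.00005% Triton X-100) in acetate buffer pH 5.5 with DTT. 1.5 nM enzyme and compound were pre-mixed 15 min, then 2 uM Z-FR-AMC substrate added; reaction progress from fluorescence change between first and third reads (60 s).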
Cruzain Triton – qHTS Assay for Promiscuous and Specific Inhibitors of Cruzain (with detergent) | actives 0.43% (n = 200,000) | Potency, µM, for inactives: max response, negative = inhibition, most hits filed as inhibitors | purified cruzain, Z-FR-AMC fluorescence, 0.01% Triton | Cruzipain (Trypanosoma cruzi), P25779 | AID 1478, 2009;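 note: plate controls were neutral wells for no effect and buffer without enzyme for full effect; nearly all actives have a fitted effect of over 40% in size; top concentration of the series not given in the record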
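Detergent-containing run (0.01% Triton X-100) in acetate buffer pH 5.5 with 5 mM DTT: enzyme at 1.5 nM final, 15 min compound preincubation at room temperature, then 2 uM Z-FR-AMC substrate. Activity taken as 60 s fluorescence increase at 360/450 nm.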
SARS PLP yeast – qHTS of Yeast-based Assay for SARS-CoV PLP; S. cerevisiae expressing SARS-CoV PLpro, growth rescue; control for the full effect not named in the record; Potency, µM (top dose mostly 32.9 µM), inactives show at the highest dose activity, positive = growth rescue; actives 0.19% (n = 330,000); AID 485353, 2010; active means well fitted rising curve with a large enough effect; inconclusive means small, poorly fitted or top-dose-only effect; inactive means no such curve, though single readings can be large or run the other way; note: 0% is about no effect; nearly all actives have a fitted effect of over 55% in size; growth read by luminescence after 48 h
2A StopGo – High Throughput Screening for Foot and Mouth Disease Virus Antivirals. human cells with a luciferase reporter of 2A StopGo recoding; control for the full effect not named in the record. Potency, µM (series often up to 57.9 µM), without a hit: at the highest dose signal change, negative = less light. actives 1.2% (n = 410,000). AID 1159524, 2015; active = well fitted falling curve with a large enough effect; inconclusive = small, poorly fitted or top-dose-only effect; inactive = no such curve, though single readings can be large or run the other way; tested in HEK293T cells; note: % is set by controls: 0 for no effect and ±100 for the full control effect; nearly all actives have a fitted effect of over 45% in size; luciferase light after 4 h
LASV entry inh – qHTS for Inhibitors of binding or entry into cells for Lassa Virus. AID 540256, 2011. Lassa virus pseudotype entry inhibition, cell reporter; control for the full effect not named in the record. Potency, µM (series often up to 37.9 µM), inactives show at the top dose activity change, negative = inhibition, hits mostly inhibitors. actives 1.2% (n = 300,000); active means well fitted inhibition curve with a large enough effect; inconclusive means small, poorly fitted or top-dose-only effect, or effect the other way; inactive means flat fitted curve, though single readings scatter; tested in HEK293 cells; note: % is set by controls: 0 for no effect and ±100 for the full control effect; nearly all actives have a fitted effect of over 50% in size; luciferase read-out
NS1 inh – qHTS Assay for Inhibitors of Influenza NS1 Protein Function; S. cerevisiae slowed by influenza A NS1, growth recovery by OD600; Potency, µM (titrated, usually from 46.1 µM), for the others: top-dose activity, positive = more growth; actives 0.4% (n = 270,000); active means well fitted rising curve with a large enough effect; inconclusive means small, poorly fitted or top-dose-only effect; inactive means no such curve, though single readings can be large or run the other way; note: nearly all actives have a fitted effect of over 50% in size
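Read-out: OD600 growth recovery of NS1-expressing budding yeast. Cells grown overnight at 30C in -URA glucose medium, washed, resuspended and diluted 1:100 in 2% galactose assay medium, pH 6.0. Same strain lacking NS1 served as positive control.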
The depositor's hits bear a star; ? = inconclusive; / = no result given; [ ] = dose if it differs, or a comment. Unless noted, calls come from the whole dose curve; as a rule, active = well fitted curve in the direction sought with a large enough effect; inconclusive = small, poorly fitted or top-dose-only effect, or another doubt; inactive = no such curve, though single readings can be large; an effect the other way counts as inactive or inconclusive. Potency is the fitted concentration of half-maximal effect.

entry	canonical_smiles	RE007 growth inh	MARV entry inh	Cruzain noTriton	Cruzain Triton	SARS PLP yeast	2A StopGo	LASV entry inh	NS1 inh
1	Cc1c(C(=O)OCC(=O)N2c3ccccc3CC2C)oc2ccccc12 (stereo not drawn)	23%	?	-4%	0.1%	-1%	-16%	-25%	-26%
2	COC(=O)C1C2C=CC(C3CC23)C1C(=O)OCC(=O)c1ccc(OC)cc1 (stereo not drawn)	1%	-18%	3%	0.0%	?	-23%	?	0%
3	COc1ccccc1NC(=O)N(Cc1nnc2n1CCCCC2)c1ccc(F)cc1	/	/	1%	3.3%	/	0%	6%[46.1 µM]	/
4	Cc1cc(NS(=O)(=O)c2ccc(NC(=O)c3cccnc3)cc2)nc(C)n1	-24%	-1%	/	/	-1%	5%	-8%	10%
5	Cc1cc(=O)oc2cc(OCC3CC(c4ccccc4)=NO3)ccc12 (stereo not drawn)	8%	?	8%	-1.5%	1%	9%	?	-9%
6	CCN(CC(=O)NC1CCS(=O)(=O)C1)S(=O)(=O)c1ccccc1 (stereo not drawn)	-14%	11%	13%	1.8%	6%	-19%	1%	-8%
7	COc1ccc(S(=O)(=O)N(CC(=O)NCc2ccncc2)c2cc(C)cc(C)c2)cc1OC	5%	?	/	/	-1%	12%	-2%	-3%
8	COc1ccc(NC(=O)c2ccc3c(=O)n4nc(Nc5ccccc5C)sc4nc3c2)cc1Cl	/	/	11%	-1.8%	/	-24%	-7%[46.1 µM]	/
9	CCCC(O)(CCC)C(=O)NN(C(=O)OC)c1ccccc1	1%	-17%	-8%	-1.0%	-12%	?	-1%	3%
10	Cc1nc2ccc(S(=O)(=O)NC(CC(C)C)C(=O)NCc3ccc(Cl)cc3)cc2s1 (stereo not drawn)	/	?	?	-1.9%	/	-7%	-10%[46.1 µM]	/
11	Cc1ccc(OCCCCN2CCc3ccccc3C2)cc1	7%	?	/	/	1%	-7%	6%[46.1 µM]	-11%
12	Cc1ccc(C)c(NC(=O)C(=O)NCC2CCCN2S(=O)(=O)c2cccs2)c1 (stereo not drawn)	10%	-26%	/	/	0%	18%	-13%[46.1 µM]	/
13	CCOC(=O)n1cc(-c2cnc(CNC(=O)C(C)(c3ccccc3)c3ccccc3)o2)c2ccccc21	3%	-21%	-15%	-3.7%	-2%	-21%	?	?
14	NC(N)=NC(N)=Nc1ccc2ccccc2c1	-28%	/	/	/	0%	-7%	/	-3%
15	CCOC(=O)C1(CCc2ccccc2)CCN(Cc2ccn[nH]2)CC1	10%	-12%[46.1 µM]	/	/	0%	-12%	0%[46.1 µM]	2%
16	O=C(C1CC1)N1N=C(c2ccccc2)CC1(O)C(F)(F)C(F)(F)F (stereo not drawn)	7%	1%[46.1 µM]	/	/	2%	-4%	?	-12%
17	CCOC(=O)C(=CNc1ccccc1N1CCOCC1)C(=O)OCC	-5%	-9%[46.1 µM]	/	/	1%	0%	?	0%
18	COc1ccc(N(C(=O)c2ccc(S(=O)(=O)N3CCCC3)cc2)C2C=CS(=O)(=O)C2)cc1 (stereo not drawn)	0%	-5%	/	/	-3%	-24%	0%	0%
19	Fc1cccc(CSc2nc3ccncc3[nH]2)c1	-8%	15%	-3%	-0.8%	-9%	20%	?	-45%
20	O=C(c1ccc(Cl)cc1)C1CCN(CC(=O)N2CCCCC2)CC1	24%	-23%[46.1 µM]	/	/	12%	-24%	-10%	5%
21	Cc1ccc(N2C(=O)C3CC(c4ccccc4)=C4C5C=CC(C6C(=O)N(c7ccc(C)cc7)C(=O)C56)C4C3C2=O)cc1 (stereo not drawn)	6%	-3%	10%	-0.6%	-2%	0%	?	-1%
22	COCc1c(C(=O)N/N=C(/C)c2cccs2)nnn1-c1nonc1N	-4%	16%[46.1 µM]	/	/	1%	11%	/	-7%
23	CCCCN(C)c1ccc([N+](=O)[O-])cc1	-9%	-1%	-16%	-9.5%	1%	-18%	-1%	6%
24	CSc1ccc(CNC(=O)c2c(C)noc2C)s1	-17%	0%	/	/	0%	-17%	6%	4%
25	Cc1cccc(-n2ncc3c(N(C)Cc4ccccc4)ncnc32)c1	-7%	/	/	/	-6%	0%	/	-36%
26	Cc1ccc(-c2cnc(SCCNC(=O)c3ccco3)[nH]2)cc1	6%	?	/	/	-1%	2%	?	/
27	CCCCn1c(SCc2ncc(-c3ccccc3)o2)nc2cc(S(N)(=O)=O)ccc21	20%	?	-29%	-12%	-3%	28µM*	?	11%
28	Cc1cc(C)c[n+](C(C)C(=O)c2ccc(-c3ccccc3)cc2)c1 (stereo not drawn)	13%	?	-3%	-4.2%	-29%	?	-21%	1%
29	CCCOc1ccc(C(CC(=O)O)NC(=O)c2ccc3c(c2)OCO3)cc1 (stereo not drawn)	-4%	24%	-6%	-2.8%	3%	-9%	?	12%
30	Cc1ccc(S(=O)(=O)c2cc3c(=O)n4ccccc4nc3n(Cc3ccco3)c2=N)cc1	-10%	0%	-4%	0.7%	-2%	-1%	-1%	4%
31	COc1ccc(C(=O)NCCS(=O)(=O)NCc2ccc(F)cc2)cc1	2%	2%[46.1 µM]	/	/	4%	8%	-21%	/
32	CNC(=O)CC(=O)Nc1ccccc1C(=O)O	8%	19%	-3%	3.3%	3%	-22%	16%	12%
33	Cc1ccc(C)c(OCC(O)CN2CCCCC2C)c1 (stereo not drawn)	-1%	?	1%	-1.1%	0%	-11%	-19%	1%
34	O=C(N/N=C/c1c(O)n(Cc2ccco2)c(=O)[nH]c1=O)c1ccccc1	-11%	/	/	/	4%	31%[activator]	/	-2%
35	Cc1ccc2nc(N(CCCN(C)C)C(=O)c3ccc(S(=O)(=O)N(C)C)cc3)sc2c1	0%	?	10%	-6.0%	1%	0%	12%	-1%
36	O=C(Nc1cccc(Cl)c1)c1ccc2nc(CCc3ccccc3)oc2c1	/	/	6%	-7.3%	/	-17%	3%[46.1 µM]	/
37	CCCc1nnc(NC(=O)CS(=O)(=O)c2ccc(C)cc2)s1	4%	6%[46.1 µM]	/	/	4%	13%	3%[46.1 µM]	-5%
38	CCOc1ccc(NC(=O)CCC(=O)NNC(=O)COc2ccc(C)cc2Br)cc1	-13%	/	/	/	-5%	63%[activator]	/	-3%
39	CC1CCCC(C)N1C(=O)COC(=O)c1ccc2ccccc2n1 (stereo not drawn)	-6%	-10%	/	/	3%	32%[activator]	4%	/
40	CN(C)CCNC(=O)c1ccc2nc(Cc3ccccc3)oc2c1	/	/	-23%	-0.9%	/	20%	10%[46.1 µM]	/
41	On1nnc2c3ccccc3c3ccccc3c21	20%	1%[46.1 µM]	/	/	-1%	-12%	-6%	5%
42	C/C(=N\Nc1c([N+](=O)[O-])c(C)nn1C)c1ccc(F)cc1F	1%	-14%	/	/	-3%	-9%	-1%	/
43	Cc1cc(C=C2C(=O)c3ccccc3C2=O)c(C)n1-c1ccccc1	3%	6.5µM*	?	-4.0%	2%	1.1µM*	?	17%
44	CCOC(=O)N1CCN(C(=O)c2cc(-c3ccc(OCC)cc3)nc3ccccc23)CC1	9%	?	?	-18%	?	-5%	4.6µM*	-55%
45	COCCNC(=O)c1cc(-c2cccs2)on1	0%	/	-6%	-6.5%	-4%	69%[activator]	/	0%
46	COc1ccc(C(F)(F)F)cc1N/C=C/c1nnnn1-c1ccc(C)cc1	-1%	?	/	/	0%	7%	?	4%
47	COc1cccc(-c2cc(C(F)(F)F)nc(N3CCCCC3)n2)c1	?	?	7%	0.4%	-4%	-8%	-15%	2%
48	COc1ccc(CCC(=O)NCCOc2ccc(Cl)cc2)cc1	8%	4%	/	/	-1%	17%	8%	-33%
49	CCOC(=O)/C=C(\C)Nc1cc(C)nn1-c1ccccc1	4%	-19%	5%	1.1%	5%	2%	26%	?
50	Cn1c(Cc2cccc3ccccc23)nnc1SCC(=O)N1CCN(c2cccc(Cl)c2)CC1	1%	13µM*	29%	1.4%	4%	?	?	4%

Later entries.
entry	canonical_smiles	RE007 growth inh	MARV entry inh	Cruzain noTriton	Cruzain Triton	SARS PLP yeast	2A StopGo	LASV entry inh	NS1 inh
51	Cc1ccc(NC(=O)CN2c3cccc4cccc(c34)S2(=O)=O)cc1S(=O)(=O)N1CCOCC1	/	?	?	-5.1%	4%	-19%	14%	-5%
52	CCOCCCn1c(=N)c(C(=O)NCc2cccnc2)cc2c(=O)n3ccccc3nc21	/	?	?	?	/	-19%	10%[46.1 µM]	/
53	CN1CCN(C(=O)CCn2c(=O)c3cccn3c3cccnc32)CC1	-1%	15%[46.1 µM]	/	/	14%	-5%	17%[46.1 µM]	3%
54	Cc1cc(C)cc(C(=O)Nc2ccc(NC(=O)c3cccs3)cc2)c1	14%	?	/	/	-5%	-31%	-19%	-2%
55	COc1ccccc1NCc1cc(=O)oc2c(C)c(O)ccc12	11%	?	/	/	2%	-15%	5%[46.1 µM]	13%
56	CC(C)Cn1c(N)c(C(=O)COC(=O)c2ccc3c(c2)OCCO3)c(=O)n(C)c1=O	-11%	?	?	7.7%	-4%	?	?	-2%
57	CCOC(=O)c1c(C)[nH]c(C(=O)OCC(=O)N(CC(C)C)c2c(N)n(Cc3ccccc3)c(=O)[nH]c2=O)c1C	-3%	?	/	/	/	-9%	-28%	/
58	Cc1cccc(N(CC(=O)Nc2cccnc2)S(C)(=O)=O)c1	-6%	/	/	/	-3%	-9%	/	-7%
59	O=C(CSc1nc2ccccc2o1)N1CCN(S(=O)(=O)c2ccc3ccccc3c2)CC1	0%	5%	?	-4.0%	4%	-20%	-8%	3%
60	O=[N+]([O-])c1ccc(Cl)c(/C=N/n2c(COc3ccccc3)n[nH]c2=S)c1	29%	-26%	0%	-7.9%	-8%	?	?	0%
